TRPML1 agonist = activates the human TRPML1 channel; Q9GZU1; TRPML1-expressing cells, Ca2+ dye fluorescence, FDSS; host cell line not named in the record; reference of the full effect not given here; activation, % (test concentration not listed); 410,000 compounds, 0.12% hits; AID 624414; in the data active = activation above about 50%; inconclusive = about 30% to 50%; inactive = below about 30%; note: 0% is about no effect; the text of the record puts the active cut at 80%
Target sequence (Q9GZU1 whole entry, looked up): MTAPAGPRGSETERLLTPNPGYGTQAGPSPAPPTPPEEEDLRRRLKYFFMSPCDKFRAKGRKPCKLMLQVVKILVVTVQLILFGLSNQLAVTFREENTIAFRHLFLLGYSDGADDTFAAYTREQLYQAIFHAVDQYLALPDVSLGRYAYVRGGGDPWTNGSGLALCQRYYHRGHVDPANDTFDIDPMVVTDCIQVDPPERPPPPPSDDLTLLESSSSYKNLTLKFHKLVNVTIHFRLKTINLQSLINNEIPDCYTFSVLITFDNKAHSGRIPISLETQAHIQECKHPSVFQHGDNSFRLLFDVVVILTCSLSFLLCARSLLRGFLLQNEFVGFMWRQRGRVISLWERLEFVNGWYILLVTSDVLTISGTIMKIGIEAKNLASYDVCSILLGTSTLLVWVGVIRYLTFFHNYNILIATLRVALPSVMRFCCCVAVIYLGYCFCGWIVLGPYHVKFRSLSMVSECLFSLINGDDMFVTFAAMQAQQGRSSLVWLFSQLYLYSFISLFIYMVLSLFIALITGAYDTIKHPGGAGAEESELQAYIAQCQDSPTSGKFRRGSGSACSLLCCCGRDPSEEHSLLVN
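In this qHTS format, compounds were pin-transferred onto Ca8-dye-loaded TRPML1-DL cells induced with Tet overnight, and intracellular Ca2+ fluorescence was recorded kinetically for 110 s after a 10 s baseline. A subsequent 4uM final 54-4 (EC80) addition followed by a second 110 s read served as the antagonist phase.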
gsp agonist = activates gsp, the McCune-Albright syndrome mutation; gsp mutant cells, cAMP HTRF, 30 min; control for the full effect not named in the record; Potency, µM (titrated, usually from 76.9 µM), for inactives: top-dose activation (cAMP increase), usual class: activators; 340,000 compounds, 0.13% hits; active = well fitted activation curve with a large enough effect; inconclusive = small, poorly fitted or top-dose-only effect, or another doubt; inactive = no such curve, though single readings can be large or run the other way; cell line not stated here;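 note: phosphodiesterase inhibitor Ro 20-1724 added with compounds to block cAMP breakdown; potency is the fitted concentration of half-maximal effect; nearly all actives have a fitted effect of over 60% in size; about a fifth of the inactives were tested at one dose only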
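Cells stably selected in G418 were plated at 2000/well, grown 16-24 hr, then given compounds in DMSO with the PDE inhibitor […] (300 uM solution added) for 30 min at 37C; cAMP was read by HTRF.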
Menin-MLL FL inh = inhibitors of human menin-MLL interaction, wild-type MLL peptide. Fluorescence polarization, fluorescein-MLL peptide displacement from menin. 290,000 tested, under 10 active. AID 1766. FP activity change, % at 61.4 µM; inconclusive = falling polarisation curve, or a change in total fluorescence; inactive = total fluorescence flat and polarisation flat or rising; no compound was filed as active; the % refers to the polarisation; negative = inhibition;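 note: % of control where 0% means no effect; inhibitors lower the polarisation; unlabelled MLL peptide was the positive control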
ClpP mod = qHTS Assay for Activators of ClpP | ATP-dependent Clp protease proteolytic subunit (Bacillus subtilis (strain 168)), P80244 | purified B. subtilis ClpP, FRET peptide cleavage, 20 min | Potency, µM (doses to about 57.5 µM), inactives show at the highest dose activity change, negative = active | 340,000 compounds, 1.9% hits | AID 651965, 2013; active = well fitted falling curve with a large enough effect; inconclusive = small, poorly fitted or top-dose-only effect; inactive = no such curve, though single readings can be large or run the other way; note: potency is the fitted concentration of half-maximal effect; the source files actives as falling curves though it sought activators and does not explain the sign; nearly all actives have a fitted effect of over 65% in size; many hits overshoot -100%
Target sequence (P80244 whole entry, looked up): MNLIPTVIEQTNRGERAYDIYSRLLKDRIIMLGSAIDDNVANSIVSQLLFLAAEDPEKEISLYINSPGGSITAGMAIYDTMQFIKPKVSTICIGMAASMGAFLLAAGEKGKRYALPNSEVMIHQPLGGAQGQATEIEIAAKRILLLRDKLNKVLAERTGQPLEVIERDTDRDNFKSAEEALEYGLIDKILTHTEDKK
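Buffer: 100 mM Tris/HCl pH8, 100 mM KCl, 0.05% low protease BSA, 2.5% glycerol, 0.01% Tween-20. ClpP 10 microg/mL final; 20 min RT; delta FRET normalized to ADEP and DMSO controls.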
gsp antagonist = gsp mutant antagonism; gsp-mutant cells, cAMP HTRF, 30 min; control for the full effect not named in the record; Potency, µM (top dose mostly 76.9 µM), inactives show at the highest dose activity change, negative = inhibition, hits mostly inhibitors; 340,000 compounds, 0.4% hits; active = falling curve of any shape with a large fitted effect; inconclusive = falling curve, mostly with a smaller effect; inactive = flat or rising curve; cell line not stated here;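 note: intracellular cAMP measured with PDE inhibitor Ro 20-1724 present during compound exposure; potency is the fitted concentration of half-maximal effect; % is set by controls: 0 for no effect and ±100 for the full control effect; nearly all actives have a fitted effect of over 65% in size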
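Measurement of cellular cAMP by homogeneous time-resolved fluorescence following a 30 min compound exposure at 37C. The PDE inhibitor […] was present throughout; the assay buffer was DPBS with 0.05% BSA and 0.005% Tween 20.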
TRPML1 blocker = inhibitors of human TRPML1 channel; TRPML1-inducible cells, Ca2+ dye fluorescence, FDSS; hits give low values; inhibition of EC80 agonist-evoked calcium signal; Q9GZU1; activity change, negative = inhibition, % (no concentration beside the values); 390,000 compounds, 0.02% hits; in the data active means activity change below about -50%; inconclusive means about -30% to -50%; inactive means above about -30%;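 note: stimulus is agonist 54-4 at its EC80 concentration; % is set by controls: 0 for no effect and ±100 for the full control effect; compound concentration not given in the record; the text of the record puts the active cut at -80%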
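Calcium fluorescence in TRPML1-DL cells induced overnight with Tet: a 110 s read after compound pin addition, then a 110 s antagonist read after challenge with 54-4 at 4 uM final (EC80).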
* marks the source's active call; other numbers are inactive results; ? = inconclusive; . = no result given; & = joins results of further samples; [ ] = dose if it differs, or a comment. An unsorted share of the library, and some 2.1% of all compounds hit somewhere here.

Start of the data: the first 2 entries, ahead of the listing:
SMILES | TRPML1 agonist | gsp agonist | Menin-MLL FL inh | ClpP mod | gsp antagonist | TRPML1 blocker
O=C(c1cc(COc2c(F)cccc2F)on1)N1CCC(c2ccccc2F)C1 (configuration not stated) | 1.2 | -10%[15.4 µM] | -6.9 | . | -23% | -5
O=C(c1ccc(COCC(F)(F)F)cc1)N1CCN(c2ccccn2)CC1 | -0.5 | 20% | -0.5 | -13% | 3% | 2

All compounds of this part, from the first entry:
SMILES | TRPML1 agonist | gsp agonist | Menin-MLL FL inh | ClpP mod | gsp antagonist | TRPML1 blocker
O=C(c1cc(COc2c(F)cccc2F)on1)N1CCC(c2ccccc2F)C1 (configuration not stated) | 1.2 | -10%[15.4 µM] | -6.9 | . | -23% | -5
O=C(c1ccc(COCC(F)(F)F)cc1)N1CCN(c2ccccn2)CC1 | -0.5 | 20% | -0.5 | -13% | 3% | 2
O=C(Nc1ccccc1)Oc1cccc2cccnc12 | -0.3 | -52%[inhibitor] | . | -1.1% | -1% | 16
CCC1(C)CC(CC(=O)O)(c2ccccc2OC)CCO1 (configuration not stated) | -0.6 | -1% | 5.1 | 92% | 0% | -4
COC(=O)c1ccncc1C(=O)Nc1ccc(Oc2ncc(C(F)(F)F)cc2Cl)cc1 | 1.9 | -14% | 2.9 | . | 1% | 4
CCOc1ccc(C(C)NC(=O)C2CCN(S(=O)(=O)c3ccc(OC)cc3)CC2)cc1OCC (configuration not stated) | 3.0 | 5% | . | -0.4% | -7% | -18
Cc1cc(C)nc(SCc2ccc(C(=O)N/N=C/C3CCCCC3)cc2)n1 | -0.7 | 4%[15.4 µM] | 8.1 | . | 0% | 1
O=C(NCC1CCCO1)c1ccc2c(=O)n(-c3ccc(F)cc3)c(=S)[nH]c2c1 (configuration not stated) | -0.7 | ? | -7.7 | 0.0% | -8% | 6
COC(=O)c1ccc(CN(C)S(=O)(=O)c2cccs2)cc1 | -0.7 | 9%[15.4 µM] | 4.6 | . | 2% | 1
CC(CCc1ccccc1)NC(=S)NC1CCCCC1 (configuration not stated) | 2.2 | 21%[15.4 µM] | -1.1 | . | -2% | 0
COc1ccc(/C=C2\CCc3ccccc3C2=O)cc1O | 4.4 | 29% | -0.7 | . | 15% | 26
N/C(=N\OC(=O)CCn1cccc(C(F)(F)F)c1=O)c1ccc(OC(F)(F)F)cc1 | 6.8 | 8% | -0.6 | . | 5% | 35

Sorted by value in Menin-MLL FL inh (smallest number first): 3 of the compounds above.
Molecule	Menin-MLL FL inh
O=C(NCC1CCCO1)c1ccc2c(=O)n(-c3ccc(F)cc3)c(=S)[nH]c2c1 (configuration not stated)	-7.7
COC(=O)c1ccc(CN(C)S(=O)(=O)c2cccs2)cc1	4.6
CCC1(C)CC(CC(=O)O)(c2ccccc2OC)CCO1 (configuration not stated)	5.1

(further entries)
SMILES | TRPML1 agonist | gsp agonist | Menin-MLL FL inh | ClpP mod | gsp antagonist | TRPML1 blocker
CCN(CC)C1=C(Cl)C(=O)C(Cl)C12OCCO2 (configuration not stated) | -0.2 | 4%[15.4 µM] | 4.2 | . | 4% | -14
COc1ccc(NC(=O)c2cccc3cccnc23)cc1S(N)(=O)=O | 0.0 | -21% | -11 | . | 1% | -5
O=C(c1ccc(F)cc1)N1CCN(c2cc(N3CCCCC3)c(F)cc2[N+](=O)[O-])CC1 | -0.3 | -5% | -0.1 | -2.3% | -9% | 3
O=C(Oc1c(-c2ccco2)oc2ccccc2c1=O)c1cccnc1 | 2.6 | -2%[15.4 µM] | ? | . | -6% | -2
CCN1C(=O)C(CC(=O)Nc2ccc(F)cc2)N(CCCN2CCN(c3ccc(F)cc3)CC2)C1=S (configuration not stated) | 4.7 | 11%[15.4 µM] | -2.7 | ? | -9% | -7
CCOC(=O)N1CCC(NC(=O)CCC(=O)N2CCOc3ccc(C)cc32)CC1 | -0.6 | -26% | 0.0 | 0.6% | 8% | -5
C=C1C(C(=O)Nc2ccccc2)C1C(=O)Nc1ccccc1 (configuration not stated) | 1.0 | -2% | 3.2 | -2.2% | 9% | 13
CCOC(=O)C(=NCC1CCCO1)NNc1ccccc1Cl (configuration not stated) | -0.5 | 4% | 0.9 | . | -24% | -4
C=C1CCC[C@]2(C)C[C@H]3OC(=O)C(CNCCN(CC)CC)[C@H]3CC12 (some centres not stated) | -1.1 | 0%[15.4 µM] | . | 0.7% | 8% | 6
C=CCNS(=O)(=O)c1cc(S(=O)(=O)NCC=C)c(OC)cc1OC | 0.0 | 2%[15.4 µM] | -1.5 | . | 0% | -7
Cn1ncc2c(Nc3ccc(-c4ccccc4)cc3)ncnc21 | 0.9 | -9% | 0.5 | ? | -19% | -2
CCN(CC)c1ccc(S(=O)(=O)N2CCOCC2)cc1NC(=O)COC(=O)/C=C/c1ccco1 | 7.4 | 22% | . | -3.2% | ? | 0
O=C1c2ccccc2C(=O)C12OC(c1ccccc1)C1(C(=O)c3ccccc3C1=O)C2c1ccc([N+](=O)[O-])cc1 (configuration not stated) | 0.7 | -6% | . | -2.4% | -2% | 32
O=C(Nc1ccc(F)cc1)c1cccc(C(=O)Nc2ccc(F)cc2)c1 | -0.2 | -11% | 14 | -2.1% | 2% | 30
CCOc1ccccc1NC(=O)CN1c2ccccc2S(=O)(=O)c2ccccc21 | 0.5 | . | . | ? | . | -7
COc1ccc(Oc2coc3cc(OC(=O)c4cncc(Br)c4)ccc3c2=O)cc1 | -0.8 | 46% | 1.4 | -4.0% | -6% | -1
COc1ccc(C(=O)Nc2nc(N)n(-c3ccccc3)n2)cc1 | -0.2 | -8% | 4.0 | -0.2% | 11% | 11
O=C(COC(=O)[C@@H]1CCCN1C(=O)c1cccs1)Nc1ccc(Br)cc1 | 2.2 | 3% | . | . | -13% | -29
COc1ccc(Cc2nnc(SCC(=O)Nc3ncc(C)s3)o2)cc1 | -0.2 | -3% | 0.5 | 0.3% | -4% | 0
CCNc1sc(C(=O)c2cccs2)c(N)c1-c1nc2ccccc2s1 | -0.1 | -5% | 5.5 | -0.4% | -21% | 1
O=c1[nH]c(C2CCN(S(=O)(=O)c3ccc(C(F)(F)F)cc3)CC2)nc2c1nnn2Cc1cccc(F)c1 | 0.2 | 2%[15.4 µM] | 4.2 | . | ? | 0
Cc1ccc(NC(=O)CSc2nc(C)c(Cc3ccccc3)c(=O)[nH]2)cc1C | 2.6&0.9 | -80%[inhibitor] | -0.9 | 1.4%&3.8% | -17% | -6&9
CC(=O)Nc1ccc(C(=O)CSc2nnc(-c3ccccc3)n2-c2ccccc2)cc1 | 0.7 | . | . | 0.0% | . | -7
CN(C)S(=O)(=O)c1cccc(COC(=O)c2cnccn2)c1 | -0.3 | 53%[15.4 µM] | . | . | 7% | -1
Nc1ccc(S(N)(=O)=O)cc1 | 0.8 | . | -1.7 | -1.8% | 12% | -9
Cc1cc2c(C)cc(=O)[nH]c2cc1NC(=O)CCl | -0.5 | 2% | -7.7 | ? | -21% | -6
CCC(C)NC(=O)c1ccccc1C(=O)NC(C)CC (configuration not stated) | 0.8 | -24% | -0.8 | -1.3% | 12% | -7
CCc1ccc(NC(=O)Cn2nc3c4ccccc4n(Cc4ccccc4)cc-3c2=O)cc1 | 3.6 | . | . | 2.0% | . | 16
COc1cc2c(cc1OC)n(CC(=O)Nc1ccc(C)cc1C)c(=O)n1nc(-c3ccccc3)nc21 | -0.4 | . | . | -15% | . | -8
Clc1ccc(OCc2nn3c(C4CCCCC4)nnc3s2)cc1 | 2.0 | -8% | 2.8 | -3.7% | 0% | -8
Cc1ccc(/C=N/NC(=O)c2ccc(NC(=O)c3ccccc3Cl)cc2)o1 | 0.5 | -9% | 0.0 | . | -2% | 34
COc1cc(S(=O)(=O)N2CCC(O)(c3cccc(C(F)(F)F)c3)CC2)ccc1-n1cnnn1 | 0.7 | 1% | 6.2 | 1.0% | -10% | 39
Nc1ncc(S(=O)(=O)c2ccc([N+](=O)[O-])cc2)s1 | -0.4 | -34%[inhibitor] | . | . | -1% | -2
O=C(Nc1c(F)cc(F)cc1Br)c1cccnc1 | -0.2 | -72%[inhibitor] | 0.8 | 4.2% | -5% | -3
O=C(NNC(=S)NC(=O)c1ccc(Br)cc1)c1cccc([N+](=O)[O-])c1 | 5.1 | -36%[inhibitor] | -3.5 | 1.0% | 3% | -1
CCOC(=O)/C(C#N)=C/c1cn(CCC(=O)O)nc1-c1ccccc1 | 1.2 | 14% | -1.3 | -3.1% | -11% | 0
Nc1ccc(C(=O)N2CCN(S(=O)(=O)/C=C/c3ccccc3)CC2)cc1[N+](=O)[O-] | 0.8 | -1% | . | -6.9% | -4% | 6
COc1ccc(N2C(=O)C3CCCN3C2c2cccc(OC)c2OC)cc1 (configuration not stated) | 0.5 | -2% | 1.2 | 0.2% | 4% | -23
CCN(CC)S(=O)(=O)c1ccc(OC)c(N)c1 | 0.3 | 1% | 0.0 | . | 5% | -7
CC(C)(Oc1ccc(F)cc1)C(=O)OCC(=O)c1ccc(S(C)(=O)=O)cc1 | 0.1 | 13% | . | -0.1% | -2% | -3
O=C(NCCc1ccccc1F)C1CC(=O)N(c2ccccc2)C1 (configuration not stated) | -0.5 | 30% | . | -1.1% | 4% | 4
CCSc1ncc(Cl)c(C(=O)Nc2sc3c(c2C(=O)NCCCOC)CCCC3)n1 | 1.6&-0.6 | . | . | 1.0%&-2.3% | . | 13
O=C(NCC(=O)N1CCN(C(c2ccccc2)c2ccccc2)CC1)c1ccc(Br)o1 | 3.1 | 7% | 2.5 | 0.2% | ? | -10
CC(C)(C)OC(=O)N/N=C\c1ccc[nH]1 | 0.2 | 13% | -0.5 | . | 1% | 2
Nc1c(C(=O)Nc2ccc(F)cc2)nnn1-c1cccc(C(F)(F)F)c1 | 0.5 | -4%[15.4 µM] | -1.6 | -0.7% | 3% | -11
COc1ccc(C(=O)CSc2nnc(CNC(=O)c3ccc(OC)c(OC)c3)n2C)cc1 | 1.5 | 23% | 3.1 | -3.2% | -4% | 14
CCC(CN(C)C)Oc1cc(NCc2ccccc2)c2ncn(C(C)C)c2c1 (configuration not stated) | -0.3 | . | . | -3.2% | -9% | 6
Cc1ccc(CNS(=O)(=O)c2ccc3c(c2)n(C)c(=O)c(=O)n3C)cc1 | 0.1 | 10% | -10 | . | -2% | 1
O=C(C1CCN(S(=O)(=O)c2c(Cl)cccc2Cl)CC1)N1CCCCCCC1 | 0.5 | -14%[15.4 µM] | . | . | -14% | 30
COc1ccc(-c2nn(-c3ccccc3)cc2C(=O)N2CCOCC2)cc1 | 0.1 | -15% | -1.6 | -1.2% | -5% | -3
C=CCn1c(SCC(=O)c2cccs2)nc2sc(C)c(C)c2c1=O | 1.6 | 39% | 9.2 | 2.4% | -6% | 23

Source: PubChem BioAssay
